Screens as filed in PubChem BioAssay.
HIV Env fusion: blocks HIV Env-driven cell-cell fusion; HeLa-JRFL Env/CEM21 cell fusion, luciferase; inhibition, % at 12.3 µM; 360,000 tested, 1.1% active;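 active means mean replicate inhibition score of at least 50 and every replicate individually at or above 50; inconclusive means only one of the two criteria met; inactive means mean below 50 and not all replicates reaching 50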;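 further: 0% = plate neutral controls and 100% = maraviroc near 300 nM; one replicate is shown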
Rce1 inh: inhibitors of yeast Ras-converting enzyme. 290,000 tested, 0.27% active. yeast membranes, quenched prenylated peptide cleavage fluorescence. calls only;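 active means fall in fluorescence gain of 50% or more versus controls, with final raw signal at or below 3038400; inconclusive means same 50% fall but final raw signal above 3038400; inactive means fall in fluorescence gain under 50%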;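 further: plate controls were neutral control wells for no effect and wells lacking membranes for full effect; tested at 10 µM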
MT1-MMP act inh: blocks activation of human MT1-MMP; P50281; HT1080 RFP-PRO-GFP cells, GFP/RFP ratio fluorescence, overnight; percent of plate control window, DMSO zero; GFP/RFP ratio change, % at 20 µM; 360,000 tested, 0.061% active; AID 651647;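 active means GFP/RFP ratio change of at least 30% with cell ATP level not reduced by more than half and red fluorescence within 50% of control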; further: strong numbers were not always called active
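Assay system: HT1080 RFP-PRO-GFP cells. Benchmarks: DMSO vehicle wells and RFP-L50D-GFP reporter cell wells. Times: overnight cell settling, then overnight compound exposure, 37 °C, 5% CO2. Compound: 20 µM single dose, 1% DMSO. Read-out basis: GFP/RFP fluorescence ratio.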
Yeast UUG start: alters start codon recognition fidelity in yeast | S. cerevisiae UUG-firefly luciferase reporter, luminescence/redox ratio | AID 602363 | activity score, % at 18.7 µM | 350,000 tested, 0.13% active;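 active means replicate mean at a twofold rise or more, about +100% in these data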;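 further: firefly luciferase made from a UUG start codon reports start codon fidelity; reporter light over untreated wells divided by growth signal over untreated wells; some hits fall short of that in this replicate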
PABP polyA inh: blocks human PABP binding to poly(A) RNA; P11940; fluorescence polarization; inhibition, % at 35 µM; 290,000 tested, 1% active; AID 2014;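 active means 50% or more with normal probe brightness, or confirmed in later tests; inconclusive means above 50% with abnormal brightness, or retests that disagree; inactive means below 50% or failed in later tests; about a fifth of its hits are not listed in these tables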;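 further: calls also rest on retests at 20 µM and on dose response follow-up; controls were probe without protein and protein plus probe with vehicle; some compounds called inactive have numbers as strong as hits; many hits fall short of the cut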
Target sequence (P11940 whole entry, looked up): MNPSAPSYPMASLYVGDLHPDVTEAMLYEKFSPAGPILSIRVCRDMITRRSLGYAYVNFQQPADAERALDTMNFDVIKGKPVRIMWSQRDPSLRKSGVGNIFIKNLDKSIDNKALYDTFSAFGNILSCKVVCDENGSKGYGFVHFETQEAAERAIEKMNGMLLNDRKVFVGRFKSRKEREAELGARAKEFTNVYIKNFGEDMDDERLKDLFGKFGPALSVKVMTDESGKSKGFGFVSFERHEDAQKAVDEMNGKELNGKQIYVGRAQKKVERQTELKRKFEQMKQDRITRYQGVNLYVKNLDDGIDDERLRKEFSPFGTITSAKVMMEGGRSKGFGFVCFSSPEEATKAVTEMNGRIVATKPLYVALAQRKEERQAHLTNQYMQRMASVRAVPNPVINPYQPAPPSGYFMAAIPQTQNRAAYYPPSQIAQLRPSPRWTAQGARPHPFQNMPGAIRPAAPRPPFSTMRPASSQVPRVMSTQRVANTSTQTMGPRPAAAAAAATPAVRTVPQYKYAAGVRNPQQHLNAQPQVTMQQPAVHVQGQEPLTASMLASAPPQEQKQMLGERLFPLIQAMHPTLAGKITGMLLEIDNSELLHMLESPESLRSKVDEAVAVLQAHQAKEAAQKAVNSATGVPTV
CSC inhib: cancer stem cell inhibition. cancer stem cell-like cells viability, luminescence. inhibition, % at 7.5 µM. 300,000 tested, 1.1% active. AID 2717;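 active means mean at 75% or more and at least half the replicates too; inconclusive means mean and replicates disagree; tested in HMLE shEcad cells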;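 further: 0% = median of negative and 100% = median of positive control wells; the first replicate is given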
eIF4H FP inh: inhibitors of RNA binding by human eIF4H; eIF4H fluorescence polarization binding assay; inhibition, % at 35 µM; Q15056; 290,000 tested, 0.94% active;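 active means 50% or more with normal probe brightness, or confirmed in later tests; inconclusive means above 50% with abnormal brightness, or retests that disagree; inactive means below 50% or failed in later tests; about a fifth of its hits are not listed in these tables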;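 further: calls also rest on retests at 20 µM and on dose response follow-up; 0% = protein and probe with vehicle and 100% = probe without protein; strong numbers were not always called active; many hits fall short of the cut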
eIF4H FP inh retest: second read-out of eIF4H FP inh, no call of its own (marks repeat the call); inhibition, %; compound at 20 µM; confirmation average;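 mean of two retest wells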
PABP polyA inh retest: recorded beside PABP polyA inh, whose call it bears; inhibition, %; compound at 20 µM; confirmation repeats;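 mean of two retest wells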
MT1-MMP act inh RFP: recorded beside MT1-MMP act inh, whose call it bears; RFP signal change, %; measured here: RFP expression control read;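 0 = vehicle wells; hits needed this value within 50% of zero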
* hit, by the source's call; i = inactive; u = inconclusive; x = not tested or not shown; + = active, no number; [ ] = remark or other dose. These rows are one share of the data; rates above refer to the full screens.

SMILES	HIV Env fusion	Rce1 inh	MT1-MMP act inh	MT1-MMP act inh RFP	Yeast UUG start	PABP polyA inh	CSC inhib	eIF4H FP inh	others
CC(C)[C@H](NC(=O)N1CC(=O)Nc2ccccc21)C(=O)N1CCC[C@@H]1C(=O)O	x	x	4	3	-24	4	-2	6
CC(C)(C)OC(=O)C(Cc1ccc(OC(C)(C)C)cc1)NC(=O)CNC(=O)OCc1ccccc1 (stereo unspecified)	23	i	-11	-17	x	-16	-2	-1
COC(C/C=C/[C@H](O)[C@H](C)OCc1ccccc1)OC	1	+	4	4	2	x	-6	x
O=c1[nH][nH]c2nc(C(F)(F)F)cc(C(F)(F)F)c12	-18	i	6	6	-23	-2	8	9
O=C(COC(=O)CNC(=O)c1ccco1)NCc1ccc(F)cc1	4	i	-1	3	x	9	-9	2
CC(C)CCNC(=O)c1onc(CSc2ccc(Cl)cc2)c1C(=O)NCCC(C)C	11	i	-4	3	-6	2	44	-9
COC(=O)C1CCN(C(=O)COC(=O)CCc2nc3ccccc3c(=O)[nH]2)CC1	3	i	1	1	-6	-1	-3	-2
CSc1ccc(CNC(=O)Cn2nc(C)c3c(C)n(-c4ccc(C)cc4)nc3c2=O)cc1	-9	i	-3	0	-11	x	19	x
COc1cc(C)ccc1OCCOCCOc1ccccc1[N+](=O)[O-]	11	i	-1	-5	5	12	3	3
COc1ccc(N2C(=O)C(CC(=O)O)S/C2=C\C(C)=O)cc1 (stereo unspecified)	x	i	-3	-2	-6	2	-9	6
COc1ccc(Cc2nnc(SCC(=O)Nc3nc(C)cs3)o2)cc1	5	i	5	5	-19	-3	-6	-5
COc1cccc(N(CC(=O)N2CCOCC2)S(C)(=O)=O)c1	13	i	-2	1	-15	8	-9	1
Cc1ccc(S(=O)(=O)N2CCOCC2)cc1NC(=O)COC(=O)C1CCC1	-12	x	1	5	-16	x	x	x
COc1ccc(OC)c(CCNC(=O)c2ccc3c(c2)N(Cc2ccccc2)CCS3)c1	12	i	-4	-1	-31	-2	30	6
CC(NC(=O)c1ccccc1F)c1cccc2ccccc12 (stereo unspecified)	1	u	2	-1	7	x	-4	x
CCNc1nc(SC)nc(N(C#N)CC(=O)OC)n1	x	i	1	4	-19	-2	5	-11
COc1ccc(NC(=O)Cc2ccsc2)cc1S(=O)(=O)N1CCOCC1	0	x	0	3	-8	x	x	x
CC(C)(C)C(=O)N/C(N)=N/c1nc2ccccc2o1	-129	i	8	-13	-18	-10	5	-2
Cc1cc(C)c(Cn2c(=O)[nH][nH]c2=O)cc1Cn1c(=O)[nH][nH]c1=O	-9	x	0	3	-12	x	x	x
CCCNC(=O)C1(C)CCN(Cc2ccc(Oc3ccccc3)cc2)C1 (stereo unspecified)	-1	x	0	-7	-13	x	x	x
CS(=O)(=O)c1ccc2nc(NC(=O)C3C4C=CC(C4)C3C(=O)O)sc2c1 (stereo unspecified)	x	i	-1	2	-10	-5	-22	4
CCOc1ccc(S(=O)(=O)NCc2cccnc2)c2ccccc12	4	i	4	-1	-40	14	-2	1
COc1ccc(S(=O)(=O)Nc2cccnc2)cc1	13	i	-1	-1	x	-2	7	-9
COc1ccc(S(=O)(=O)N2CCN(C(=O)c3ccccn3)CC2)cc1	-42	x	4	2	-18	x	x	x
N#Cc1ccc(-c2ccc(OCC(=O)Nc3cccnc3)cc2)cc1	59*	i	3	-27	-25	-4	-12	93	eIF4H FP inh retest=-17;PABP polyA inh retest=27
Fc1ccc(NC(=S)N2CCc3ccccc3C2)c(F)c1	-11	i	1	-3	x	-6	-10	6
O=C(OCc1c(-c2ccccc2)ncc2ccccc12)c1ccccc1C(F)(F)F	-14	x	17	4	-17	x	60	x
COc1ccc(CNC(=O)C[C@H]2C[C@H](C(=O)N(C(C)C)C(C)C)[C@@]3(C)c4[nH]c5ccc(Cl)cc5c4CCN3C2=O)cc1OC	-19	x	-13	-22	0	x	x	x
O=C(NCc1ccccc1)c1ccc(NC(=O)C2CCCO2)cc1 (stereo unspecified)	-10	i	2	4	20	1	-8	-6
O=C(O)CSc1ncccn1	-12	i	1	-2	x	-3	6	-9
O=C(C[C@H]1CC[C@@H]2[C@H](COC[C@@H](O)CN2Cc2ccc(Cl)cc2)O1)NCCc1ccccc1	4[16.7 µM]	x	-1	-5	-21	x	x	x
COC(=O)c1ccc(COC(=O)c2ccccn2)cc1	-29	i	1	-3	-55	-5	-3	-4
CCOc1cc(/C=N\NC(=O)CC(=O)NCCc2ccccc2)ccc1O	0	x	-1	-2	x	11	11	-7
CCC(=O)N1CCc2cc(S(=O)(=O)CCC(=O)Nc3ccc(C(C)=O)cc3)ccc21	12	i	-1	3	-25	7	10	-11
O=C(O)/C(=C\c1cccc(OCc2ccccc2)c1)c1ccc(F)cc1	1	i	0	3	-6	10	47	-5
O=C(CCSc1ccccc1Cl)Nc1cccc([N+](=O)[O-])c1	-19	i	3	0	x	-5	18	-5
O=C(NNS(=O)(=O)c1ccccc1)c1ccc(O)cc1	x	i	1	7	-27	22	3	-7
C=CCNC(=O)c1ccc(C)cc1Cl	-134	i	-2	1	-24	3	-8	-8
Cc1cccc(OCC(=O)N/N=C/c2cc([N+](=O)[O-])ccc2N2CCOCC2)c1	10	i	-2	-7	-21	5	-4	11
Cc1ccccc1NC(=S)NCc1ccc(Cl)cc1	-10	i	-2	-2	x	-9	-9	-4
Cn1c(N)c(C(=O)COC(=O)c2ccccc2C(F)(F)F)c(=O)n(C)c1=O	-10	x	2	-2	-1	x	8	x
O=C(Nc1nccs1)c1cn(-c2ccccc2)nc1-c1ccncc1	8	i	-1	-3	-14	-14	-8	-18
O=C(COC(=O)c1ccco1)Nc1ccc(Br)cc1	x	i	0	2	-14	2	x	1
COc1ccc(N2CCN(S(=O)(=O)c3c(C)[nH]c(C)c3C(=O)N3CCCC3)CC2)cc1	3	i	0	3	0	-1	5	-10
Cc1ccc(NC(=O)CS(=O)CC(=O)N(C(C)C(=O)NC2CCCCC2)C(C)(C)C)cc1 (stereo unspecified)	8	i	-1	1	x	-1	0	4
O=c1oc(-c2ccccc2)nc2c1cnn2-c1ccccc1	6	i	2	0	-11	7	-19	2
COc1ccc(OC)c(NC(=O)NCc2ccc(F)cc2)c1	-129	i	4	1	-14	7	2	4
Cc1ccc(CNC(=O)CCc2c(C)[nH]c(=O)c(C#N)c2C)cc1	9	i	-3	2	-23	0	7	8
Cc1ccc2c(c1)C1(SCCS1)C(=O)N2	-83	i	-7	0	-9	-11	-16	7
O=C(COC(=O)c1cc(-c2cccs2)nc2ccccc12)NCc1ccco1	x	i	4	3	x	31	9	14
CCn1ccnc1CNC(=O)c1ccc2oc(C(C)C)nc2c1	2	x	2	2	-21	-17	0	-11
CCCCOc1ccc(C(=O)N2CCCC2C(=O)O)cc1 (stereo unspecified)	x	i	2	2	-17	11	0	4
COCc1cc(=O)n2[nH]c(-c3ccco3)cc2n1	5	i	-1	2	-14	-2	-10	-1
O=C(COC(=O)CCN1C(=O)C2CC=CCC2C1=O)NCCc1ccc(F)cc1 (stereo unspecified)	-37	x	0	-2	-9	x	-2	x
Cc1ccc(S(=O)(=O)N(CC(=O)NCc2ccccn2)c2ccc(Cl)cc2)cc1	1	i	-2	-2	-9	-4	3	-2
CCOc1ccccc1CSc1nc2ccccc2[nH]1	-22	i	0	-4	x	-4	-7	-2
CCc1c(C)sc(NC(=O)c2cc(CC(C)C)on2)c1C#N	1	i	-3	-9	-16	0	12	4
CCOc1ncccc1C(=O)Nc1cccc(S(=O)(=O)N2CCOCC2)c1	2	x	0	-1	-9	x	-33	x
CC1(c2cccc(Br)c2)NC(=O)N(CC(=O)NCCC2=CCCCC2)C1=O (stereo unspecified)	-19	x	5	-5	-20	x	x	x
Cc1cccnc1NC(=O)NC(=O)c1ccc(C(C)(C)C)s1	-6	i	-5	2	x	-3	-7	5

3 records picked at random from those above, as already listed:
SMILES	HIV Env fusion	Rce1 inh	MT1-MMP act inh	MT1-MMP act inh RFP	Yeast UUG start	PABP polyA inh	CSC inhib	eIF4H FP inh	others
C=CCNC(=O)c1ccc(C)cc1Cl	-134	i	-2	1	-24	3	-8	-8
Cn1c(N)c(C(=O)COC(=O)c2ccccc2C(F)(F)F)c(=O)n(C)c1=O	-10	x	2	-2	-1	x	8	x
Cc1ccc(CNC(=O)CCc2c(C)[nH]c(=O)c(C#N)c2C)cc1	9	i	-3	2	-23	0	7	8

Other entries follow:
SMILES	HIV Env fusion	Rce1 inh	MT1-MMP act inh	MT1-MMP act inh RFP	Yeast UUG start	PABP polyA inh	CSC inhib	eIF4H FP inh	others
COc1ccc(-c2noc(C3CCCN(S(=O)(=O)c4cccc(Cl)c4)C3)n2)cc1OC (stereo unspecified)	x	i	1	-6	x	9	-2	-10
Cc1cc(C)nc(NS(=O)(=O)c2ccc(NC(=O)CN3C(=O)C4CC=CCC4C3=O)cc2)n1 (stereo unspecified)	-1	i	1	4	x	1	-6	27
COC(=O)C1=C(C)N(c2cccc(Cl)c2)C(=O)C1	-156	i	-11	0	-12	4	-4	-6
COc1ccc(N(C)C(=O)Cc2c(C(=O)O)[nH]c3ccccc23)cc1	25	i	-2	3	x	-2	-3	4
CCCCn1c(N)c(N(CCC(C)C)C(=O)C2=COCCO2)c(=O)[nH]c1=O	-19	i	-3	0	-24	2	-12	-10
Cc1sc2ncnc(N3CCC(C(=O)NCC(=O)Nc4ccc(F)c(F)c4)CC3)c2c1C	x	i	-3	-14	4	4	-3	-13
O=S(=O)(c1cnc[nH]1)N1CCc2ccccc21	-85	i	-14	-2	-17	1	-4	-3
CCCCOC(=S)NC(=O)c1sc2ccccc2c1Cl	-120	i	-5	2	x	0	-3	4
Cc1cc(C)n2c(SCC(=O)Nc3c(C)n(C)n(-c4ccccc4)c3=O)nnc2n1	x	i	-2	9	x	0	0	0
CCOCCOC(=O)C1=C(C)N(C)C(=O)NC1c1ccccc1Cl (stereo unspecified)	x	i	2	6	-11	2	-11	-9
CC1CCCC(N2C(=O)NC(NC(=O)c3ccco3)(C(F)(F)F)C2=O)C1C (stereo unspecified)	-89	i	-2	3	-8	-2	7	-5
CN(CC(=O)Nc1ccc(F)cc1)C(=O)COC(=O)CN1C(=O)NC2(CCCC2)C1=O	31	i	1	3	-4	0	x	5
CC1CCC(NC(=O)C2CCN(C(=O)NC3CCCCC3)CC2)CC1 (stereo unspecified)	x	i	x	x	x	-6	x	-3
C[C@H](NC(N)=O)C(=O)OCC(=O)NCc1cccs1	-11	i	1	5	-15	12	12	2
CC(OC(=O)/C=C/c1ccc2ccccc2n1)C(=O)NCc1ccccc1 (stereo unspecified)	5	i	-6	-6	-19	x	22	x
COC(=O)Cn1c(=O)n(CCc2ccccc2)c(=O)c2c3c(sc21)CCCC3	x	i	-7	-5	x	-2	-1	-5
CCOc1ccc(Nc2ccc(S(=O)(=O)N3CCOCC3)cc2[N+](=O)[O-])cc1	-39	x	3	-9	-18	x	x	x
O=C(NC1CCCC1)c1ccc(COCC(F)(F)C(F)F)o1	x	i	4	0	-21	-6	0	7
Cc1c(NS(=O)(=O)c2ccc(Cl)c(C(=O)OC(C)C(=O)NCc3ccco3)c2)c(=O)n(-c2ccccc2)n1C (stereo unspecified)	-17	i	x	x	13	0	11	-4
CN(C)CCCN1c2ccc(O)cc2Sc2ccc(Cl)cc21	10	x	-8	-3	-5	x	x	x
